# BJeLR viability: MLPCN primary cell-based screen for lethality selective to Ras in HRASV12 cells; BJeLR (HRASV12) viability, CellTiter-Glo ATP luminescence, 48 h; reference of the scale not given here; inhibition, % (no concentration beside the values); 0.17% of 300,000 active;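 active means replicate mean above 50%; inconclusive means above 50% but judged a plate artefact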;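 further: 50 nL library stock added to about 25 µL; numbers are from one replicate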
# Mtb hypoxia inh: PubChem AID 1159583 | M. tuberculosis hypoxia-regulated fluorescent reporter, fluorescence | fluorescence inhibition, % (concentration not given with the values) | 0.1% of 300,000 active;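 active means 35 to 45% if threefold the growth effect, above 45% if 1.5-fold the growth effect; inactive means the rest, general growth blockers included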;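 further: wells of about 50 µL received 100 nL stock; 0% = vehicle wells and 100% = reference inhibitor wells; whole bacteria with a GFP reporter of the hypoxia response; strong numbers were not always called active; many hits fall short of the cut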
# ugtP null kill: growth inhibition of ugtP-null S. aureus, primary screen, RN4220 ugtP deletion, OD600; 16 h; some inactives read as strong as hits; growth inhibition, % (test concentration not listed); 0.54% of 330,000 active; AID 1259309, 2017;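 active means z-score under -3 and OD600 up to 0.15 on both plates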;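 further: plate controls were untreated wells for no effect and antibiotic for full effect; wells of about 80 µL received 100 nL stock; the first replicate is given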
# PrP UTR inh: inhibition of PrP 5' UTR reporter expression; cell-based PrP 5' UTR mRNA reporter, plate reader; inhibition, % (test concentration not listed); 0.35% of 340,000 active;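 active means every replicate at 50% or more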;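 further: 0 = median of the neutral control wells; tested in H4 reporter cells; numbers are from one replicate; inactives centre near -14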
# Sa RN4220 lethal: growth inhibition of S. aureus RN4220, primary screen, OD600; inhibition, % (test concentration not listed); AID 1259311, 2017; 0.33% of 330,000 active; 16 h;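 active means z-score of -3 or lower and OD600 up to 0.18 on both plates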;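 further: plate controls were untreated cells for no effect and reference antibiotic for full effect; stock transfer was 100 nL into about 80 µL; one replicate is shown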
# Bead autofluor: counter-screen for toxin protease inhibitors: compound fluorescence. compound autofluorescence counterscreen, microsphere flow cytometry; hits give high values. fluorescence intensity (test concentration not listed). 3.1% of 360,000 active. AID 624483;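 active means at least 3 SD above the mean of all compounds, about 16000 in these data; inconclusive means too few beads counted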;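 further: 100 nL of 1 mM stock went into each well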
# Mtb hypoxia inh growth: recorded beside Mtb hypoxia inh, whose call it bears; growth inhibition, %; measured here: M. tuberculosis growth (absorbance);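 0% = vehicle and 100% = reference antibiotic; read after six days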
# * hit, by the source's call; ? = inconclusive; / = no result given.
SMILES,BJeLR viability,Mtb hypoxia inh,Mtb hypoxia inh growth,ugtP null kill,PrP UTR inh,Sa RN4220 lethal,Bead autofluor
Cc1ccc(NC(=S)N2CCCC(O)C2)cc1 (stereo not given),7,1,9,-1,-33,3.7,3302
c1ccc(-c2nnc(-c3ccccn3)nc2NC2CCCCC2)cc1,66*,/,/,89,20,97*,4199
COc1ccccc1/C=N/n1c(N)c(S(=O)(=O)c2cccs2)c2nc3ccccc3nc21,-6,/,/,/,-25,/,9429
CN(CCC(=O)Nc1ccc(Br)cc1)Cc1ccccc1,2,/,/,-7,-10,-2.2,2201
O=C(Nc1cccc(OC(=O)c2ccco2)c1)c1ccco1,9,-4,0,-4,-15,2.7,4298
O=C(c1ccco1)N1CCN(C(=O)c2ccccc2OCc2ccc(Cl)cc2)CC1,-4,1,0,4,-15,3.5,5209
Cc1ccc(NC(=O)NCCN2CCN(C(=O)Nc3ccc(C)cc3)CC2)cc1,4,6,7,0,-13,1.6,3799
CCOC(=O)CSC(CC)C(=O)Nc1nnc(C(C)C)s1 (stereo not given),0,-4,10,7,-8,10,5475
CC(C)[C@H](NC(=O)c1cccc(S(=O)(=O)N2CCOCC2)c1)C(=O)Nc1nccs1,2,5,5,1,-5,9.6,4768
CCN(Cc1ccccc1)C(=O)CSc1nc(C)cc2c1C(=O)OC2,-1,10,8,1,-7,0.8,3042
CC(C)CCN1CN(S(=O)(=O)c2cccs2)c2nc3ccccc3nc21,7,-2,10,4,-6,7.1,2482
Cc1ccc(S(=O)(=O)N2CCCC2C(=O)Nc2nc3c(s2)CCCC3)cc1 (stereo not given),-1,/,/,8,-21,-1.1,3418
Nc1[nH]ncc1-c1ccc(Cl)cc1,13,7,7,3,-5,2.0,4614
COc1ccc(O)c(C(=O)c2cc(SCC(=O)O)c3nc4sc5c(c4c(=O)n3c2)CCCC5)c1,-2,3,-1,24,-25,26,4677
Cc1nc2ccccc2nc1N1CCC(C)CC1,6,/,/,9,-29,3.5,4301
CCOc1cc2c(cc1OCC)CN(C(=O)c1cccc(S(=O)(=O)N3CCCC3)c1)CC2,/,11,17,0,-13,-1.3,8077
C#C[C@]1(O)CCC2C3C(=O)C=C4C=CCC[C@]4(C)C3CC[C@@]21C (stereo not given in full),/,4,1,1,/,3.8,3863
Cc1cccc(-n2c(CCCN3C(=O)c4ccccc4C3=O)nc3ccccc3c2=O)n1,/,/,/,6,-14,-1.9,5350
O=C(O)c1nn2c(C(F)(F)F)cc(-c3cccs3)nc2c1Cl,7,1,3,5,-6,2.1,2550
CCOC(=O)C1=C(CSc2nc3ccccc3s2)NC(=O)NC1c1cccc([N+](=O)[O-])c1 (stereo not given),-4,0,1,2,-9,15,9543
Cc1ccc(NC(=O)c2oc3ccc(S(=O)(=O)N4CCOCC4)cc3c2C)cc1C,-1,-1,-2,9,-21,4.2,10999
COc1ccc(C=O)cc1COc1ccc(F)cc1F,1,/,/,-5,-15,4.9,4447
O=C(NCC(=O)N1CCCCCCC1)c1ccccc1Cl,/,2,7,-2,-41,-4.2,?
COc1cccc(CC(NC(C)=O)C(=O)NC2CCN(C(=O)c3ccc(Cl)cc3)CC2)c1 (stereo not given),-8,3,7,10,-21,4.9,3564

# Profiles, looked up by structure:
# COc1ccc(O)c(C(=O)c2cc(SCC(=O)O)c3nc4sc5c(c4c(=O)n3c2)CCCC5)c1 is entered as BJeLR viability: -2; Mtb hypoxia inh: 3; Mtb hypoxia inh growth: -1; ugtP null kill: 24; PrP UTR inh: -25; Sa RN4220 lethal: 26; Bead autofluor: 4677
# Nc1[nH]ncc1-c1ccc(Cl)cc1 is entered as BJeLR viability: 13; Mtb hypoxia inh: 7; Mtb hypoxia inh growth: 7; ugtP null kill: 3; PrP UTR inh: -5; Sa RN4220 lethal: 2.0; Bead autofluor: 4614

# (more compounds)
SMILES,BJeLR viability,Mtb hypoxia inh,Mtb hypoxia inh growth,ugtP null kill,PrP UTR inh,Sa RN4220 lethal,Bead autofluor
CCC1CN1P(=O)(Oc1ccc(Cl)cc1)N1CC1CC (stereo not given),/,4,-10,-4,-15,4.2,3920
CC(OC(=O)CNC(=O)c1ccco1)C(=O)Nc1ccc(Cl)cn1 (stereo not given),13,-7,2,5,-26,2.8,4923
CC(=O)C1=C(O)C(=O)N(c2ccccn2)C1c1ccc(Cl)cc1 (stereo not given),-14,-11,0,-4,-26,-2.3,3112
Cc1cc(C)n2nc(C(=O)N/N=C/c3ccccc3C)nc2n1,-2,/,/,/,4,/,4337
Cn1c(C(=O)N2CCOCC2)cc2c(=O)n3ccccc3nc21,-4,1,0,-2,-22,-2.3,5918
O=C(Cc1cccc2ccccc12)Nc1ccc2oc(-c3ccccc3)nc2c1,-10,9,8,-2,-22,0.7,8065
CNc1cccc2c1C(=O)c1ccccc1C2=O,2,/,/,/,-35,/,1665
CC1(C)Cc2c(sc(NC(=O)C3CC(Cl)=CCC3C(=O)O)c2C#N)CO1 (stereo not given),-3,2,5,8,-12,6.7,2675
O=C1CN(O)C(c2ccccc2Cl)=c2cc(Br)ccc2=N1,7,-12,-3,2,/,0.7,3774
CCOP(=O)(OCC)C(NC(=O)CC(C)C)C(Cl)(Cl)Cl (stereo not given),3,-1,-3,-13,45,-4.6,4106
O=C(NCc1ccc(C(=O)N2CCC3(CC2)OCCO3)cc1)c1cccc(Br)c1,-11,11,11,7,1,1.3,11693
COc1ccc(CN2CCN(C(=O)c3cccs3)CC2)c(OC)c1OC,-3,1,4,-4,-9,0.9,2489
CC(C)C(=O)c1ccc(O)c(O)c1,-10,4,-1,8,-13,2.7,3655
C[C@@]12CCC=C[C@H]1[C@H](c1ccc3ccccc3c1)N(Cc1ccccc1)C2=O,10,/,/,/,-7,/,2906
O=C(COC(=O)c1cc(Cl)ccc1O)NCCC1=CCCCC1,0,/,/,/,-2,/,6165
CC(C)(C)NC(=O)Cn1ccc(=N)c2ccccc21,-5,3,3,1,-12,4.6,2925
CC(C)C[C@@]12C(=O)N(c3cccc(Cl)c3)C(=O)N1[C@H](c1ccc(F)cc1)[C@@H]1C(=O)N(C3CCCCC3)C(=O)[C@@H]12,-8,/,/,/,-7,/,3753
CC(C)Oc1ccc(S(=O)(=O)N2CCOCC2)cc1NC(=O)Cc1c(F)cccc1Cl,-12,3,4,5,-10,4.1,5911
N#CC1=C(SCC(=O)NC23CC4CC(CC(C4)C2)C3)NC(=O)C(C#N)C12CCCCC2 (stereo not given),11,9,-1,4,-34,17,9067
CCOc1ccc(OCc2ccc(C(=O)N(CC)CC)cc2)cc1,2,-8,-4,-8,-74,-4.0,2338
Cc1cc(C(=O)N2CCN(S(=O)(=O)c3ccc(C)c(C)c3)CC2)no1,/,-7,10,-9,-9,-3.7,6476
Cc1cc(Cl)ccc1OCC(=O)N1C(C)CCCC1C (stereo not given),0,11,13,-4,-3,8.2,24242*
S=c1[nH]nc(COc2ccccc2)n1N=Cc1cccc(Cl)c1Cl,/,-10,7,-1,/,10,/
S=c1[nH]nc(-c2ccncc2)n1N=Cc1cccc2ccccc12,/,12,2,2,/,3.6,/
O=C(Nc1ccccc1)C1Cc2ccccc2CN1C(=O)c1ccco1 (stereo not given),8,5,4,-7,-122,0.4,8551
CCCC(=O)NC(c1ccc(C(C)C)cc1)c1ccc2cccnc2c1O (stereo not given),49,/,/,/,26,/,3805
COc1ccc(CCC(=O)Nc2ccc(C(=O)c3ccncc3)cc2)cc1,2,16,8,0,-20,3.8,4434
C=CCn1c(SCC(=O)NCC2CCCO2)nc2scc(-c3ccccc3)c2c1=O (stereo not given),5,3,4,8,-17,0.0,6094
NC(N)=NS(=O)(=O)c1ccc(NC(=S)NC(=O)c2ccncc2)cc1,-13,1,-1,5,-22,2.5,3866
O=C1CN(O)C(c2ccccc2)=c2cc(Br)ccc2=N1,4,-1,0,12,-27,3.3,3286
COc1cc(C=Nc2cccc(C)c2)c(O)c([N+](=O)[O-])c1,-3,13,7,-1,-11,5.8,1955
COCc1cc(C)nc(SCC(=O)Nc2ccc(C)c(C)c2)c1C#N,-5,8,14,-1,-64,-2.6,4966
CCCSC1=C(C#N)C(c2cc(OC)ccc2OC)CC(=O)N1 (stereo not given),-2,10,5,14,3,3.3,5924
CCOc1ccccc1NC(=S)NC(=O)C1CC1,2,/,/,/,-2,/,5360
CC[C@H](C)/C=C(C)/C=C/C1=CC2=CC(=O)[C@]3(C)OC(=O)[C@@H](C(C)=O)[C@@H]3C2=CO1,0,/,/,5,-26,11,5305
CCN1CCN(C(=O)Cc2ccc(C)cc2)CC1,6,-2,-3,6,-44,2.5,/

# The last 4 compounds of the section above open the next one.
SMILES,BJeLR viability,Mtb hypoxia inh,Mtb hypoxia inh growth,ugtP null kill,PrP UTR inh,Sa RN4220 lethal,Bead autofluor
CCCSC1=C(C#N)C(c2cc(OC)ccc2OC)CC(=O)N1 (stereo not given),-2,10,5,14,3,3.3,5924
CCOc1ccccc1NC(=S)NC(=O)C1CC1,2,/,/,/,-2,/,5360
CC[C@H](C)/C=C(C)/C=C/C1=CC2=CC(=O)[C@]3(C)OC(=O)[C@@H](C(C)=O)[C@@H]3C2=CO1,0,/,/,5,-26,11,5305
CCN1CCN(C(=O)Cc2ccc(C)cc2)CC1,6,-2,-3,6,-44,2.5,/
Cc1ccc(O)c(NC(=O)c2noc3c2CCc2ccccc2-3)c1,4,-8,-3,-4,-64,-6.8,4630
O=C1CCCC(O)=C1N=Nc1c(Cl)cc(C(F)(F)F)cc1Cl,-5,11,3,6,-32,2.0,2889
Cc1ccc(NC(=O)c2cc(N3C(=O)C=CC3=O)ccc2N2CCOCC2)cc1,-1,-1,0,-5,-13,-2.6,3223
O=C1NC2c3ccccc3C(=O)N2c2c1cnn2-c1ccccc1 (stereo not given),6,/,/,8,-7,-1.6,3828
Cc1ccc(O)c(C(=O)c2cc(C#N)c(=O)n(Cc3ccccc3)c2)c1,-4,8,0,0,-25,0.8,5014
CC(OC(=O)CCCN=C1NS(=O)(=O)c2ccccc21)C(=O)Nc1ccccc1F (stereo not given),1,9,6,19,-13,6.3,4657
COc1ccc(C2CC(=O)N(CC(=O)NCC3CCCO3)c3ccccc3S2)cc1OC (stereo not given),-3,6,2,9,-15,2.9,2562
CN(Cc1ccco1)C(=O)c1ccc(N2CCCC2=O)cc1,11,/,/,3,-16,0.2,2587
OCc1ccnc2c(O)cccc12,-8,7,1,4,-13,1.6,3316
O=C(/C=C/c1cccc(Cl)c1)NCCN1CCOCC1,-6,-1,1,6,-25,3.5,2726
O=C(OCc1nc2ccccc2[nH]1)C1CCCCC1,/,-1,6,5,9,3.8,2189
Fc1ccc(-c2nc3cnccn3c2NC2CCCC2)cc1,4,11,9,6,-1,7.1,5708
CCN(CC)S(=O)(=O)c1cccc(NC(=O)CNC2CCCCCC2)c1,-13,7,5,6,-29,-0.7,4432
COC(=O)CCCC(=O)N1CCC(CCC(=O)NCc2ccc(F)cc2)CC1,-19,-7,1,-2,-23,-0.9,3803
CN1CCN(c2ccc(C(=O)c3ccccc3)cc2[N+](=O)[O-])CC1,-7,8,12,22,-21,2.0,2386

# Screens deposited in PubChem by several laboratories.
